Screens (PubChem)
Mtb growth: Mycobacterium tuberculosis H37Rv growth inhibition, cell based, confirmatory dose response (AID 1949). most inactive calls were filed without a number and no value below 0 was filed. one-dose inhibition, % at 10 µg/mL; IC50 in µg/mL for titrated hits. 100,000 compounds, 1.6% hits;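 active = confirmed in a dose series; inconclusive = about 50% or more but not retested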;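 also: bacteria grown 7 days with compound before Alamar blue readout; 0% = untreated bacteria and 100% = reference antibiotic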
Starred values were filed as active, the others as inactive; i = inactive; ? = inconclusive. Only part of the results is shown. The share of hits here may be higher or lower than overall.

SMILES | Mtb growth
CC(=O)c1ccc(N2CCN(C(=O)NC34CC5CC(CC(C5)C3)C4)CC2)cc1 | i
CCc1ccccc1OCC(=O)Nc1cccc(C(=O)OC)c1 | 0%
Cc1ncsc1CCSc1nc2ccccc2c(=O)n1C | 3%
CC(NS(=O)(=O)Cc1ccccc1)c1ccccc1 (stereo not drawn) | i
Cc1cc(C)c2nc(OCC(=O)c3ccc(Br)cc3)oc2n1 | 1%
CCc1cc(=O)oc2c(C)c(OCC(=O)c3ccc4ccccc4c3)ccc12 | i
OCc1cc(Cl)c(OCc2ccccc2F)c(Br)c1 | 11%
Cc1ccccc1C(=O)N1CCC(C(=O)Nc2cccc([N+](=O)[O-])c2)CC1 | 3%
CC1CCN(CCC(=O)Nc2ccc(Br)cc2)CC1 | i
COc1ccc(CCC(=O)Nc2ccccc2C(F)(F)F)cc1 | 6%
O=C(CN1C(=O)c2ccccc2S1(=O)=O)Nc1ccc(S(=O)(=O)N2CCCCCC2)cc1 | i
C=CCN(CC=C)CCOc1ccc(Cl)c2ccccc12 | i
CC1CCN(S(=O)(=O)c2ccc(C(=O)N3CCN(c4cccc(Cl)c4)CC3)cc2)CC1 | i
Cc1ccc(F)cc1NC(=O)CCSc1nc(-c2ccco2)cc(C(F)(F)F)n1 | i
C=CCOc1ccc(C(=O)Nc2ccc(OCC)cc2)cc1 | i
O=c1[nH]c2ccc(NCc3ccc(Cl)cc3Cl)cc2[nH]1 | 3%
Cc1cc(=O)oc2c(C)c(OCC(=O)C(C)(C)C)ccc12 | 0%
CC1(C)CC(NC(=O)COc2ccc(Cl)cc2)CC(C)(C)N1 | i
O=C1CCC(=O)N1c1nc2n(n1)C(c1ccccc1Cl)C=C(c1ccc(Br)cc1)N2 (stereo not drawn) | i
COc1ccc(CCNC(=O)CCC2CCCCC2)cc1 | i
CCOc1cc(N)c([N+](=O)[O-])cc1Cl | 18%
COC(=O)c1ccc(NC(=O)CSc2nnc3scc(-c4ccc(C)cc4)n23)cc1 | i
CCOC(=O)c1c(-c2ccccc2)csc1NC(=O)CCc1ccccc1 | 2%
CCOc1ccc(N2CCN(CCCNC(=S)NC3CCCCC3)CC2)cc1 | i
O=C(O)c1ccccc1-c1ccccc1C(=O)Nc1nc(-c2ccccc2)cs1 | i
COC(=O)c1sccc1NC(=O)c1ccc2c(c1)OCCO2 | i
COc1ccc(Cl)cc1NC(=O)COc1cccc(C)c1C | i
CC(=O)NC(=S)Nc1ccc(NC(=S)NC(=O)c2cc(Br)ccc2Cl)cc1 | i
CCn1c(CC(=O)Nc2cccc(OC)c2)nnc1SCC(=O)Nc1ccccc1OC | 2%
CCC(C(=O)Nc1ccc(O)cc1C(=O)O)c1ccccc1 (stereo not drawn) | i
COC(=O)c1ccc(Cl)c(NS(=O)(=O)c2cccs2)c1 | i
Cc1cc2ccccc2n2c(SCC(=O)Nc3nsc(-c4ccccc4)n3)nnc12 | i
Cc1ccc(-c2ccc(S(=O)(=O)Nc3ccc4c(c3)OCCO4)cc2)cc1 | i
Cc1cc(OC(F)F)ccc1NC(=S)NCCc1ccccc1 | i
CCN1CCN(c2ccc(C(C)=O)cc2F)CC1 | i
Cc1ccc(Cl)cc1NC(=O)CC1NCCNC1=O (stereo not drawn) | i
Cc1ccc(-c2[nH]nc3c2C(c2ccsc2)C(C#N)=C(N)O3)cc1 (stereo not drawn) | i
O=C(Nc1ccc(S(=O)(=O)Nc2cnc3ccccc3n2)cc1)c1ccc(F)cc1 | i
COc1ccc(C)cc1NC(=O)C(C)C1Sc2ccccc2NC1=O (stereo not drawn) | 5%
CCCOc1ccc(-c2cc(C(=O)NCC3CCCO3)c3ccccc3n2)cc1 (stereo not drawn) | 45%
Cc1ccnc(NC(=O)c2ccccc2NC(=O)c2ccco2)c1 | i
CS(=O)(=O)N1CCN(c2ccc(NC(=S)NC(=O)c3cc4ccccc4o3)cc2)CC1 | 1%
N#Cc1c(NC(=O)CNS(=O)(=O)c2cccc(Cl)c2)sc2c1CCCC2 | 1%
C=CCSc1nnc(NC(=O)c2ccc(S(=O)(=O)N3CCCCC3)cc2)s1 | i
S=C(c1cn(CCOc2ccccc2)c2ccccc12)N1CCCC1 | 5%
N#CCSc1nnc2ccc3ccccc3n12 | i
O=C(COc1ccc([N+](=O)[O-])cc1)Nc1ccc(-c2nc3ccccc3s2)c(Cl)c1 | 3%
O=C1c2ccccc2NC(c2ccccc2O)N1O (stereo not drawn) | 2%
COc1ccccc1OCCCC(=O)Nc1sc2c(c1C(N)=O)CCCC2 | i
Cn1nnc2cc(NC(=O)Nc3cccc(Cl)c3)ccc21 | i

Continued.
SMILES | Mtb growth
CCCCC(=O)Nc1ccc(NC(=O)c2cccc(OC(C)C)c2)cc1OC | i
O=C(Nc1ccc(CN2CCOCC2)cc1)c1ccccc1[N+](=O)[O-] | i
CCOC(=O)N1CCN(C(=O)CSc2ccc(C)cc2)CC1 | i
CC(=O)c1cccc(NC(=O)Nc2ccc(Br)cn2)c1 | i
COC(=O)c1ccccc1NC(=O)c1cnn2c(C(F)F)cc(-c3ccc(C)cc3)nc12 | i
Brc1ccccc1OCCOCCOc1cccc2cccnc12 | 3%
Cc1cccc(NC(=O)c2ccc(CSc3ccccc3)cc2)c1C | 43%
CCn1c(COc2ccc3c(c2)OCO3)nnc1SCC(N)=O | i
Cc1cccc(Nc2nc(-c3ccc(-c4cc(Cl)ccc4Cl)o3)cs2)n1 | i
CCCCC(=O)Nc1ccc(C(=O)Nc2cc(Cl)c(Cl)cc2Cl)cc1 | 0%

Continued (five carried over from the part before).
SMILES | Mtb growth
Brc1ccccc1OCCOCCOc1cccc2cccnc12 | 3%
Cc1cccc(NC(=O)c2ccc(CSc3ccccc3)cc2)c1C | 43%
CCn1c(COc2ccc3c(c2)OCO3)nnc1SCC(N)=O | i
Cc1cccc(Nc2nc(-c3ccc(-c4cc(Cl)ccc4Cl)o3)cs2)n1 | i
CCCCC(=O)Nc1ccc(C(=O)Nc2cc(Cl)c(Cl)cc2Cl)cc1 | 0%
COc1cccc(NC(=O)CC2Nc3cc(C)c(C)cc3NC2=O)c1 (stereo not drawn) | i
O=C(OCc1ccc([N+](=O)[O-])cc1)c1cccc(-c2nnc(-c3ccccc3)o2)c1 | i
O=S(=O)(NCc1ccc(CNS(=O)(=O)c2ccc(F)cc2)cc1)c1ccc(F)cc1 | i
COc1cccc(S(=O)(=O)N2CCCC2C(=O)O)c1 (stereo not drawn) | i
CCC(Sc1nnnn1-c1ccccc1)C(=O)Nc1sc2c(c1C#N)CCCC2 (stereo not drawn) | i
CCn1c2ccccc2c2nnc(SCC(=O)O)nc21 | i
CN(C)C(=O)NCc1ccc(Cl)cc1 | i
CCC(=O)Oc1cccc2ccc(/C=C/c3ccccc3F)nc12 | <0.1µg/mL*
COc1cc2c(cc1OC)C(C)N(c1ncnc(N)c1[N+](=O)[O-])CC2 (stereo not drawn) | 2%
COC(=O)c1ccccc1NC(=O)C1c2ccccc2Oc2ccccc21 | i
O=C(Nc1ccc2c(c1)OCCO2)Nc1cccc2ccccc12 | i
CC(NC(=O)c1ccccc1NC(=O)c1ccccc1)C(=O)Nc1ccc2ccccc2c1 (stereo not drawn) | 19%
CCOC(=O)N1CCN(C(=S)Nc2cccc(Cl)c2)CC1 | i
O=C(NC1c2ccccc2-c2ccccc21)N1CCCCC1 | i
COc1ccc(NC(=S)Nc2ccc(C(=O)N3CCCCC3)cc2)cc1OC | i
CC(=O)c1c(C)nc(-c2ccc(C)cc2)n1O | i
O=c1c2c(-c3ccc(Cl)cc3)csc2ncn1Cc1cccc(Cl)c1 | i
COc1ccc(OC)c(NC(=O)CC2NCCNC2=O)c1 (stereo not drawn) | i
CCSc1ccccc1C(=O)NCCc1ccccc1 | 7%
CCC(C)NC(=O)c1ccccc1NC(=O)CN(c1ccccc1Br)S(C)(=O)=O (stereo not drawn) | i
COc1cc(S(=O)(=O)NCc2cccnc2)ccc1F | i
O=C(Nc1nc2ccc(Cl)cc2s1)c1cc(Br)ccc1Cl | i
CCOc1cc(CO)ccc1OCc1ccc([N+](=O)[O-])cc1 | i
COC(=O)c1ccc(C2C(C#N)=C(N)Oc3n[nH]c(-c4ccc(OC)c(OC)c4)c32)cc1 (stereo not drawn) | i
CC1=C(/C=C/C(C)=N\O)C(C)(C)CCC1 | 1%
CCN(CCCn1c(=S)[nH]c2ccccc2c1=O)c1cccc(C)c1 | i
O=c1cc2oc3cc(O)c(O)cc3c(-c3ccccc3)c-2cc1O | i
COC(=O)c1ccc(Cl)c(NC(=O)CSc2nc(C)cc(C(F)(F)F)n2)c1 | i
COc1ccc(S(=O)(=O)N(C)CC(=O)Nc2ccc(C)c(C)c2)cc1 | 1%
CC(NC(=O)Cn1cc(C#N)c2ccccc21)c1ccccc1 (stereo not drawn) | i
O=C(CC1Sc2ccccc2NC1=O)Nc1ccc2c(c1)OCCO2 (stereo not drawn) | i
Cc1c(NC(=O)c2ccccc2Cl)ccc([N+](=O)[O-])c1C | i
O=C1c2oc3ccc(Cl)cc3c(=O)c2C(c2ccc([N+](=O)[O-])cc2)N1CCc1ccccc1 (stereo not drawn) | 47%
CC(C)(C)NC(=O)c1ccnc(C(C)(C)C)c1 | i
Cn1cc(NC(=O)Nc2cccc(Cl)c2Cl)c(C(N)=O)n1 | i
N#Cc1ccc2ccn(CC(=O)NCc3ccco3)c2c1 | i
O=C(Nc1ccccn1)C1COc2ccccc2O1 (stereo not drawn) | i
CCOC(=O)C1=C(C)NC2=C(C(=O)CC(c3ccc(F)cc3)C2)C1c1ccc(N(C)C)cc1 (stereo not drawn) | 1%
CCCOc1cccc(C(=O)NC(=S)Nc2ccc(N3CCN(C)CC3)cc2)c1 | ?
CCc1cc(=O)oc2cc(OCC(=O)c3ccc(OC)cc3)c(Cl)cc12 | i
COc1ccc(Cl)cc1NC(=S)NNC(=O)c1cccs1 | i
Cc1sc2nc(C(C)(C)C)oc(=O)c2c1C | i
CCOC(=O)c1cnc2ccc(C(=O)OC)cc2c1NCCN1CCOCC1 | i
Cc1ccc(NC(=O)CCC(=O)c2ccc(F)cc2)cc1Cl | i
Cc1cc(Cl)cc(Br)c1OCCCSc1ncccn1 | i
Cc1cccc(CN(CC(=O)NCc2ccncc2)S(=O)(=O)c2ccc(Cl)cc2)c1 | i
COc1ccc(C(C)NC(=O)c2ccc(-c3ccccc3)cc2)cc1 (stereo not drawn) | 5%
COc1ccc(S(=O)(=O)N2CCC(N3CCN(Cc4ccccc4)CC3)CC2)cc1 | i
Nc1c(C(=O)Nc2ccc([N+](=O)[O-])cc2)sc2nc3c(c(-c4ccco4)c12)CCCC3 | i
S=C(c1ccc(Cl)c(Cl)c1)N1CCOCC1 | i

(next part)
SMILES | Mtb growth
CCN(CC)C(=O)n1cnc(-c2ccccc2)c1-c1ccccc1 | 3%
Cc1ccc(S(=O)(=O)N(CC(=O)O)c2ccc(F)cc2)cc1 | i
COC(=O)c1ccc(OC(=O)CCc2ccccc2)cc1 | i
C=CCn1c(COc2ccc(Cl)cc2)nnc1SCC(=O)O | i
CCc1ccccc1NC(=O)COc1ccc(C(=S)N2CCCC2)cc1 | i
Cc1c(NC(=O)CSCc2cccc(Cl)c2)cccc1[N+](=O)[O-] | i
COc1ccccc1OCc1ccoc1C(=O)O | 1%
Cc1cccc2c(C(=O)Nc3nncs3)cc(-c3ccccc3Cl)nc12 | i
COc1ccc(N(C(C)C(=O)Nc2cccc([N+](=O)[O-])c2)S(C)(=O)=O)cc1 (stereo not drawn) | i
Brc1c(OCCCCN2CCOCC2)ccc2ccccc12 | i

A draw from above in order of count of non-hydrogen atoms, falling.
SMILES | Mtb growth
COc1ccc(N(C(C)C(=O)Nc2cccc([N+](=O)[O-])c2)S(C)(=O)=O)cc1 (stereo not drawn) | i
Cc1cccc2c(C(=O)Nc3nncs3)cc(-c3ccccc3Cl)nc12 | i
CCN(CC)C(=O)n1cnc(-c2ccccc2)c1-c1ccccc1 | 3%
Cc1c(NC(=O)CSCc2cccc(Cl)c2)cccc1[N+](=O)[O-] | i
Cc1ccc(S(=O)(=O)N(CC(=O)O)c2ccc(F)cc2)cc1 | i
COC(=O)c1ccc(OC(=O)CCc2ccccc2)cc1 | i
COc1ccccc1OCc1ccoc1C(=O)O | 1%

(more compounds)
SMILES | Mtb growth
COC(=O)c1c(NC(=S)NNC(=O)c2cccnc2)sc2c1CCC2 | i
COc1ccccc1-c1coc2cc(OCCc3ccccc3)ccc2c1=O | ?
CCSc1nnc(NC(=O)c2ccc(C)cc2)s1 | i
CCN(CC)C(=O)c1sc(NC(=S)Nc2nn(Cc3ccc(Cl)cc3)cc2Br)c(C(=O)OC)c1C | i
CCOC(=O)c1cnc2ccc(F)cc2c1Nc1cc(OC)ccc1OC | i
CC(=O)Nc1cccc(NC(=S)Nc2ccc([N+](=O)[O-])cc2)c1 | i
CC1(C)CC2CN(C(=O)Cc3ccccc3)C(C)(C2)C1 (stereo not drawn) | i
CC(Oc1ccc(Br)cc1)C(=O)Nc1ccccc1C(F)(F)F (stereo not drawn) | i
O=C(O)c1cccc(NS(=O)(=O)c2ccc(Cl)c(C(=O)Nc3ccccc3C(=O)O)c2)c1 | i
CC1CN(CCNc2ccc(C(F)(F)F)cc2[N+](=O)[O-])C(=O)O1 (stereo not drawn) | i
Nc1ncc2c(n1)CC(c1cccc(Cl)c1)CC2=O (stereo not drawn) | i
O=C(NC(=S)Nc1ccc(S(=O)(=O)N2CCCCC2)cc1)c1cccs1 | i
COc1cc(NC(=O)Cn2nc(C(F)(F)F)c3c2CCC3)c(OC)cc1Cl | i
Cc1nc(NC2=NCCC(=O)N2)nc2ccccc12 | i
O=S(=O)(Cc1ccc(Cl)cc1)N1CCCCCC1 | 1%
O=C(O)CCCC(=O)N1CCN(c2cccc(Cl)c2)CC1 | i
